# HNF4A DNA FP – change in binding of human HNF4 alpha to DNA; P41235; activity change, % at 10 µM; HNF4a-FITC DNA binding, fluorescence polarization, 1 h; 360,000 compounds, 0.3% hits; AID 1224865; in the data active = activity change above about 30%, passing the limit was not always enough;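 note: controls were the assay level and a saturating level of protein; the project sought stronger binding though the title names inhibitors; some compounds called inactive have numbers as strong as hits; positive values seem to mean higher polarization but the record does not say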
# Target sequence (P41235 whole entry, looked up): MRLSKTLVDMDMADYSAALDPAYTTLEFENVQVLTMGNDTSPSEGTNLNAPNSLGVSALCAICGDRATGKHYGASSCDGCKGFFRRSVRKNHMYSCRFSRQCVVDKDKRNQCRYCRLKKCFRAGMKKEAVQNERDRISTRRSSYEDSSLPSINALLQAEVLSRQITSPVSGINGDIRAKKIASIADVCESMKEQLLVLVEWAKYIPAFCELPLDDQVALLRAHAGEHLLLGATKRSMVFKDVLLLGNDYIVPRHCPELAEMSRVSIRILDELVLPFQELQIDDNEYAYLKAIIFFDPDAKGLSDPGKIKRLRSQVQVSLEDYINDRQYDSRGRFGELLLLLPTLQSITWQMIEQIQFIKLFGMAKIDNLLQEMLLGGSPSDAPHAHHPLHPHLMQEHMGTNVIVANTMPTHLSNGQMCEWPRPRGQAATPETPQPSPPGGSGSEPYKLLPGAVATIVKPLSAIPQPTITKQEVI
# Beta2AR agonist – human beta-2 adrenergic receptor agonism by FAP; Am2.2-beta2AR cells, FAP receptor internalization, flow cytometry; reference of the scale not given here; 340,000 compounds, 0.43% hits; response, % (test concentration not listed); P07550;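 active = response above a set limit, near 3 SD of response in nonfluorescent compounds, cut at about 42% in these data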;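 note: stock transfer was 100 nL into about 11 µL; a reference agonist was the positive control; negative values mostly stem from fluorescent compounds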
# ALR inh – inhibitors of human sulfhydryl oxidase ALR; P55789; purified ALR, DTT oxidation, H2O2 HRP-luminol luminescence; inhibition, % (test concentration not listed); 290,000 compounds, 3.8% hits;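 active = mean and each replicate at 75% or more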;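 note: stock transfer was 7.5 nL into about 7.5 µL; 0% = neutral wells and 100% = wells with inactivated enzyme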
# Target sequence (P55789 whole entry, looked up): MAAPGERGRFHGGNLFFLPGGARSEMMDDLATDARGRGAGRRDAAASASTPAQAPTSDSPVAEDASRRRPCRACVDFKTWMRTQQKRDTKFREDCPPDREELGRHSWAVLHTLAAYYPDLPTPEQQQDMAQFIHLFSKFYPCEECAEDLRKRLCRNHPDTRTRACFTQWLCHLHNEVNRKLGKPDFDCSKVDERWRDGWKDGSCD
# FGF22 binding – shifts melting point of recombinant human FGF22. Q9HCT0. recombinant FGF22 thermal shift, SYPRO orange fluorescence; percent of sucrose octasulfate shift, DMSO zero. calls only at 9.99 µM. 340,000 compounds, 1.5% hits. AID 651658;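 active = melting point raised past a set limit in the mean and every replicate; three in four hits are not shown here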
# LANA-H2B inh – blocks KSHV LANA binding to histone H2A/H2B | AID 2629 | cell-free LANA-H2A/H2B peptide, fluorescence polarization | 320,000 compounds, 0.6% hits | Q9QR71 | inhibition, % (no concentration beside the values); in the data active = inhibition mostly above about 10%, no sharp cut-off; inactive = mostly below about 6.7%;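 note: stock transfer was 7.5 nL into about 10 µL; 0% = median of vehicle wells and 100% = median of positive control wells; one replicate is shown; the record names a cut of 25% in any replicate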
# E coli growth – E. coli growth inhibition; AID 1053175; OD600 absorbance (test concentration not listed); Escherichia coli growth, OD600, 23 h; active compounds read low; 330,000 compounds, 0.21% hits;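 active = OD600 absorbance below the run mean of sample wells minus 3.6 SD, in any replicate, cut at about 0.56 in these data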;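 note: stock transfer was 300 nL into about 60 µL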
# UCH37 inh – human UCH37 deubiquitinating enzyme inhibition. Q9Y5K5. purified proteasome/UCH37, Ub-AMC cleavage fluorescence. inhibition, % (test concentration not listed). 330,000 compounds, 0.33% hits. AID 588478;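 active = mean of two replicates above 20%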;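 note: 0% = compound-free wells with enzyme and 100% = wells lacking proteasome; stock transfer was 100 nL into about 20 µL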
# Target sequence (Q9Y5K5 whole entry, looked up): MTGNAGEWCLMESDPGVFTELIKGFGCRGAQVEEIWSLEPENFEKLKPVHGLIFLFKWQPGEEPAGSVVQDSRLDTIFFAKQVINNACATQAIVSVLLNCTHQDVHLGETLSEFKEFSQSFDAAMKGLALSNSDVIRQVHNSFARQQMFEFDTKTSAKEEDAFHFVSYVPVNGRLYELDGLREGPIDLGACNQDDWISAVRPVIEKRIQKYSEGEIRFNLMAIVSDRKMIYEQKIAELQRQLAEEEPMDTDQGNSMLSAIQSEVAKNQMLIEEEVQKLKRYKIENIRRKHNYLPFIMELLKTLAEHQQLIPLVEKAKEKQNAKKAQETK
#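 Signal – fluorescence, ex 355 nm, em 460 nm · System – Proteasome-bound UCH37 · Input – 0.15 nM proteasome as dispensed · Timing – 30 min preincubation with enzyme, 25 min cleavage at room temperature · Read-out basis – percent inhibition of cleavage signal versus uninhibited and no-proteasome wells · Medium – Tris-HCl pH 7.4 with ATP-MgCl2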
# Numbers without * were called inactive; i = inactive; nt = not tested or not shown; & = joins results of further samples. Some of the compounds tested, so the mix of outcomes need not match the whole.
SMILES,HNF4A DNA FP,Beta2AR agonist,ALR inh,FGF22 binding,LANA-H2B inh,E coli growth,UCH37 inh
C1=Nc2c(Nc3ccccc3)ncnc2Oc2ccccc21,1.7,4,12,nt,1.7,0.67,4.3
CCn1c(=O)c2ccccc2n(CC(=O)N2CCCc3ccccc32)c1=O,-3.4,-2,-1,i,0.7,0.71,0.0
CCOC(=O)CN(C#N)c1nc(N(C)C)nc(N(C)C)n1,-3.8,3,-3,i,1.0,nt,nt
O=C(Cc1cccc2ccccc12)Nc1nc2ccccc2[nH]1,1.8,0,5,nt,-8.2,0.72,4.8
Cc1c(C)c2c(OCC(=O)NCCCO)cc3c(c2oc1=O)CCC(C)(C)O3,3.2,1,-2,i,2.3,0.65,i
COc1ccccc1C1CCN(Cc2ccc(C)cc2)CC1,-1.0,-6,-24,i,-5.4,0.64,3.4
Cc1cccn2c(=O)nc(SCC(=O)N3CC(C)OC(C)C3)nc12 (stereo unspecified),2.5,-2,1,i,-1.1,0.69,-0.1
COc1ccc2nc(N3CCN(C(=O)c4ccc5ncsc5c4)CC3)sc2c1,2.2,-5,-2,i,-2.7,0.68,4.7
CCCNC(=O)C1CN(S(=O)(=O)c2ccccc2)CCN1S(=O)(=O)c1ccccc1 (stereo unspecified),-2.9,0,-3,nt,5.5,0.65,2.2
CSC1=C(C#N)C(C)C2=C(CC(C)(C)CC2=O)N1 (stereo unspecified),-1.4,4,7,nt,-3.7,0.79,-3.1
Cc1cc(C)c(NC(=S)N2CCC(N(C)CC3CCCO3)CC2)c(C)c1 (stereo unspecified),2.2,9,-26,nt,-2.4,0.65,1.8
CC1CC(=O)Nc2ccccc2N1C(=O)Cn1cnc2ccccc2c1=O (stereo unspecified),-6.0,1,-9,i,3.7,0.67,1.1
O=C(c1cccc(COc2cccc3ccccc23)c1)N1CCCC1,-0.9,17,nt,nt,-3.7,0.74,3.1
COc1ccc(S(=O)(=O)N(C)c2nc3ccccc3n3c(CC(C)C)nnc23)cc1,3.3,3,-2,i,-1.2,0.68,4.8
Cc1cccc2nc(-c3cccc(NC(=O)Cc4ccccc4)c3)cn12,3.0,1,50,i,-4.6,0.61,-11
CCC(=O)N1COC[C@@H]1Cc1ccccc1,-3.6,-1,-3,nt,0.9,0.65,3.9
C=C(C)CNC(=S)NNC(=O)CCn1c2ccc(Cl)cc2c2cc(Cl)ccc21,-0.1,27,4,i,-4.3,0.67,3.5
CCCc1ccc(OC(=O)c2ccc(O)cc2Cl)cc1,-7.0,13,16,i,-2.9,0.7,1.9
Cc1ccc2c(Cl)c(C(=O)Nc3cc(C)on3)sc2c1,-2.5,-2,-22,nt,-3.3,0.72,-0.2
O=C(CSc1nnc2c(n1)[nH]c1ccc(S(=O)(=O)N3CCOCC3)cc12)Nc1ccc(F)c(F)c1,-0.1,5,-3,i,-0.5,0.72,-0.6
CN1C(=S)N(c2cccnc2)C(=O)/C1=C\c1ccc(C(C)(C)C)cc1,3.5,22,31,i,-4.0,0.72,8.1
Cc1cc(C=O)c(C)n1-c1ccc(N2CCOCC2)cc1,3.9,6,-5,nt,3.3,0.74,4.3
Cc1ccc(C)c2[nH]c(=O)c(C(c3nnnn3Cc3ccccc3)N3CCc4ccccc4C3)cc12 (stereo unspecified),-4.7,19,-29,nt,-8.3,0.7,0.0
COc1ccccc1N1CCN(Cc2cc3c(cc2O)OCO3)CC1,6.3,-7,44,i,-1.1,0.69,4.3
CCNS(=O)(=O)c1ccc(CCC(=O)NCc2ccc(C)cc2)cc1,1.6,0,-5,i,-16,0.69,0.3
COc1ccc(CCNC(=O)c2cc(S(=O)(=O)N(C)c3ccccc3)ccc2Cl)cc1,0.3,-1,-17,nt,-8.1,0.7,2.9
Cc1ccc(C(C(=O)Nc2ccc3c(c2)OCO3)N(C)C(=O)/C=C\c2ccc3c(c2)OCO3)cc1 (stereo unspecified),-0.4,0,nt,nt,nt,0.7,3.7
O=C(Nc1cccc(C(F)(F)F)c1)c1cc2c(=O)c3ccccc3oc2nc1C(F)(F)F,3.3,-5,9,nt,0.5,0.75,-1.3
Cc1ccc(NC(NC(=O)Cc2ccccc2)C(Cl)(Cl)Cl)cc1 (stereo unspecified),2.4,6,nt,nt,nt,0.72,6.2
O=S(=O)(Nc1ccc(N2CCOCC2)cc1)c1c(F)cc(F)cc1Br,-0.9,-8,nt,i,1.3,0.64,4.0
COc1ccc(CN2CCN(CCSc3ccc(C)cc3)CC2)c(OC)c1OC,1.4,1,-22,i,-2.2,0.66,3.8
CC#CC(=O)N1CCC(C(=O)Nc2ccc(Oc3ccccc3)nc2)CC1,0.7,1,-16,i,-5.6,0.67,0.1
CN(C(=O)c1ccccn1)c1nnc(-c2cnccn2)s1,-1.3,0,-10,nt,2.9,0.67,1.0
CC(C)(C)c1ccc(/C=N/N2C(=O)CSC2=S)cc1,3.0,65*,-10,i,3.3,nt,nt
Cc1cccc(N(Cc2ccccc2)C(=O)c2ccc(F)c(S(=O)(=O)N3CCOCC3)c2)c1,-4.2,13,-2,i,-0.6,0.67,3.7
Clc1cc(CSc2ccccc2)nc(-c2ccccc2)n1,0.9,-3,34,nt,-0.8,0.73,-0.5
CC1CCN(c2oc(Cc3cccc4ccccc34)nc2C#N)CC1,-2.1,-9,-8,nt,4.1,0.71,1.2
COCCNC(=S)c1ccc(Br)cc1,1.1,-10,nt,i,2.6,0.71,4.1
NC(=O)c1ncc(C(F)(F)F)cc1Oc1ccc(F)cc1,-2.4,2,1,nt,-2.7,0.75,0.2
CCOC(=O)C1(Cc2ccccc2)CCCN(Cc2ccncc2)C1 (stereo unspecified),4.0,-3,nt,i,-4.6,0.71,3.1
O=C(c1ccc(Cl)cc1)c1ccc(OCC(=O)N2CCOCC2)cc1,3.2,8,-9,nt,-5.9,0.62,5.0
O=C(NCCN1CCC(Cc2ccccc2)CC1)C1CCCN(S(=O)(=O)c2cnc[nH]2)C1 (stereo unspecified),5.2,-7,-44,i,1.0,0.75,5.6
Cn1cc(C(=O)c2ccc(Cl)cc2Cl)cc1C(=O)O,1.9,9,0,nt,3.6,0.68,0.8
N#Cc1ccccc1OCC(O)CS(=O)(=O)c1ccccc1 (stereo unspecified),-5.6,-1,-16,i,7.1,0.71,-0.6
CCOc1ccc(C(C)=O)cc1CSc1nc(C)cc(C)n1,7.3,-28,nt,i,1.5,0.69,2.0

# Compounds shown so far with a tert-butyl group (two):
SMILES,HNF4A DNA FP,Beta2AR agonist,ALR inh,FGF22 binding,LANA-H2B inh,E coli growth,UCH37 inh
CN1C(=S)N(c2cccnc2)C(=O)/C1=C\c1ccc(C(C)(C)C)cc1,3.5,22,31,i,-4.0,0.72,8.1
CC(C)(C)c1ccc(/C=N/N2C(=O)CSC2=S)cc1,3.0,65*,-10,i,3.3,nt,nt

# Other records.
SMILES,HNF4A DNA FP,Beta2AR agonist,ALR inh,FGF22 binding,LANA-H2B inh,E coli growth,UCH37 inh
O=C(Nc1nccc(-c2cccs2)n1)c1ccccc1Cl,1.9,-2,7,nt,-8.7,nt,nt
CN(C1=NC(=O)C(CC(=O)O)S1)c1ccc(O)cc1 (stereo unspecified),-2.7,3,2,i,7.0,0.68,4.0
O=C1C(Cl)=C(NCC2CCCO2)C(=O)N1C1CCCCC1 (stereo unspecified),-2.0,11,98*,nt,3.0,0.68,1.7
O=C(NNc1ccccc1)/C(=C\c1cccnc1)NC(=O)c1ccccc1,-1.5,1,98*,i,-2.0,0.67,4.0
CC(=O)c1ccc(OCCCC(=O)OCC(=O)Nc2c(C)nn(-c3ccccc3)c2C)cc1,-1.2,-8,1,i,2.0,0.7,2.4
Cc1nc(NC(=O)c2ccco2)sc1-c1csc(Nc2ccc(Cl)cc2Cl)n1,2.6,17,nt,i,3.1,0.72,-4.2
O=C(NCCNc1ccc([N+](=O)[O-])cc1)c1ccc(Cl)cc1,0.0,-10,-8,i,0.7,0.66,8.2
CCCNc1nc(N2CCCC2)nc(N2CCCC2)n1,2.9,8,-2,i,5.9,0.6,0.2
Cn1c(=O)c(=O)n(C)c2cc(S(=O)(=O)N3CCOc4ccccc43)ccc21,-0.2,2,nt,i,-1.8,0.69,2.3
Cc1cc(NC(=O)/C(C#N)=C/c2ccc(-c3cccc(C(F)(F)F)c3)o2)n(-c2ccccc2)n1,25,21,-13,nt,2.4,0.71,-2.4
COc1ccc(NC(=O)c2ccc(Cl)c(S(=O)(=O)NCC3CCCO3)c2)c(OC)c1 (stereo unspecified),1.4,11,-15,i,1.1,0.71,3.5
Cc1cc(NC(=O)Cn2c(=O)oc3ccc(Cl)cc32)no1,2.6,-4,-2,i,-4.1,0.72,1.3
COc1ccc(C2C(C(C)=O)=C(O)C(=O)N2CCCn2ccnc2)cc1OC (stereo unspecified),-1.1,5,-22,nt,5.5,0.75,2.8
Cc1ccccc1CSCC(=O)NC(=O)NCc1ccco1,-7.7,3,-7,i,-7.4,0.64,0.6
Cc1cccc(C)c1OCCOC(=O)c1n[nH]c2ccccc12,0.7,-4,-5,i,-7.5,0.65,3.9
CC(C)=CCC/C(C)=C/CNC(=O)C[C@H]1C[C@H](C(=O)N2CCCCC2)[C@@]2(CCc3ccccc3)c3[nH]c4cc(CCC(=O)N(C)C)ccc4c3CCN2C1=O,-5.2,2,nt,i,nt,0.74,6.0
COc1ccccc1CNc1ncnc2nc[nH]c12,0.4,-4,-19,i,4.5,nt,nt
COCCNC(=O)C(c1ccco1)N(C(=O)Cn1nnc2ccccc21)c1cccc(C)c1C (stereo unspecified),-2.2,3,-1,nt,-0.7,0.71,3.1
COc1ccc(NC(=O)c2cc3c([nH]c4ccccc43)c(C)n2)cc1,-2.5,-4,nt,i,-2.3,0.66,-18
N=c1ccn(CC(=O)NC(N)=O)c2ccccc12,1.3,0,-18,nt,-2.8,0.68,-0.9
O=C(O)CCCN=CC1=C(O)C(C(=O)c2ccccc2)CCC1=O (stereo unspecified),-1.8,-10,-4,nt,4.5,0.73,1.3
COc1ccc(C(=O)c2oc3ccc(Br)cc3c2NC(C)=O)cc1,-1.0,-2,-5,i,6.3&-2.9,0.73,2.4
Cc1ccc(Cn2ccsc2=NC(=O)COC(=O)C(C)C)cc1,-1.4,2,8,i,-4.0,0.68,-0.2
O=C(Cc1cccc2ccccc12)N/N=C/c1ccc(OC(=O)/C=C/c2ccco2)cc1,2.6,-4,45,nt,-3.3,nt,nt
CCc1cc[n+](C(C(=S)Nc2cccc(C)c2)=C([O-])c2ccc(C)c([N+](=O)[O-])c2)cc1,-1.3,4,nt,i,nt,0.69,6.8
Cc1ccc(N(C(=O)CCC(=O)Nc2nccs2)C(C(=O)NC(C)(C)C)c2ccc(O)cc2)cc1 (stereo unspecified),2.2,14,-9,i,-0.7,0.69,3.5
CC(C)N=c1cc2n(-c3ccc(Cl)cc3)c3ccccc3nc-2cc1Nc1ccc(Cl)cc1,-90,33,-18,i,3.7,0.76,-0.4
O=C(O)C1CCCCC1C(=O)Nc1cc(C(F)(F)F)ccc1Cl (stereo unspecified),1.0,-2,-16,i,-2.2,0.71,-2.6

# A few values from the results shown.
# O=C(Cc1cccc2ccccc12)N/N=C/c1ccc(OC(=O)/C=C/c2ccco2)cc1 in HNF4A DNA FP is listed with 2.6
# COc1ccc(C(=O)c2oc3ccc(Br)cc3c2NC(C)=O)cc1 in Beta2AR agonist is listed with -2
# Cc1ccc(N(C(=O)CCC(=O)Nc2nccs2)C(C(=O)NC(C)(C)C)c2ccc(O)cc2)cc1 (stereo unspecified) in LANA-H2B inh is listed with -0.7
# CC(C)=CCC/C(C)=C/CNC(=O)C[C@H]1C[C@H](C(=O)N2CCCCC2)[C@@]2(CCc3ccccc3)c3[nH]c4cc(CCC(=O)N(C)C)ccc4c3CCN2C1=O in Beta2AR agonist is listed with 2

# High-throughput results from PubChem BioAssay.
